# WNV NS2B-NS3 inh: inhibitors of WNV NS2B-NS3 protease, primary screen, biochemical, fluorogenic substrate; 65,000 compounds, 0.18% hits; fluorogenic substrate Ex360/Em465; hits give low values; Genome polyprotein (West Nile virus), P06935; z-score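 (tested at a level between 10 and 100 µM)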;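 active = z-score at -3 or under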;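 note: score is relative to mean and spread of the compound wells of a plate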
# Target sequence (P06935 1371-1501 limits assumed): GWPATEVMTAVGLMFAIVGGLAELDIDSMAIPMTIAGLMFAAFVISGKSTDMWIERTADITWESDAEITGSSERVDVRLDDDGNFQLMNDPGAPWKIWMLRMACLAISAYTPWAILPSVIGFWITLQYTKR
# Target sequence (P06935 1502-1679 limits assumed): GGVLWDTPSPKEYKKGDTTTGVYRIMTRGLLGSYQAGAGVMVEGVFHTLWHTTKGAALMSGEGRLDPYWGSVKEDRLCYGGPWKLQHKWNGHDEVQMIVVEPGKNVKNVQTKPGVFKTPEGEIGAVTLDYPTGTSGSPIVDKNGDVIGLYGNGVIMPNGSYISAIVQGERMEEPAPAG
# Hsc70 ATP site: Hsc70 inhibitors, probe displacement, primary screen, biochemical, fluorescence polarization (AID 568). Heat shock cognate 71 kDa protein (Homo sapiens). Hsc70 fluorescence polarization, probe displacement; higher % means a stronger effect; strong numbers were not always called active. one-dose displacement, % at 20 µM; IC50 in µM for titrated hits. 83,000 tested, under 10 active;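 active = displacement above 50% without optical interference and an IC50 on retest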;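 note: ATPase domain with a fluorescein-tagged ATP probe; 0% = vehicle and 100% = excess ADP; read after one hour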
# MT1-MMP promoter: inhibitors of MT1-MMP promoter transcription, cell-based, luciferase reporter, luminescence (AID 618). MT1-MMP promoter luciferase reporter cells, luminescence. calls from a first round at 10 µM; hits with a dose series show EC50 in µM. 87,000 compounds, 0.62% hits;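 active = over half of the reporter light lost at 10 µM or EC50 under 50 µM; inactive = the rest and hits that failed the dose series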;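 note: actives suppress MT1-MMP promoter-driven transcription so potencies describe inhibitors; HT1080 fibrosarcoma cells; overnight exposure; toxic or luciferase-blocking compounds were not removed from the actives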
# Numbers without * were called inactive; i = inactive; / = not tested or not shown.
SMILES,WNV NS2B-NS3 inh,Hsc70 ATP site,MT1-MMP promoter
Cc1ccc(-c2ccc(CCC(=O)O)n2Cc2ccco2)cc1,-0.56,2.8%,i
CCC(=O)NC(Nc1ncc(C)s1)(C(=O)OC)C(F)(F)F (centres undefined),/,-4.4%,i
COc1ccc(CNC(N)=O)cc1OC,/,1.6%,i
CCOC(=O)N1CCN(c2c(-c3ccccc3)c3cc(Cl)ccc3[nH]c2=O)CC1,0.56,-0.6%,i
Cc1cccc(OCC(=O)N(C)CCc2ccccn2)c1,/,-1.2%,i
CCOC(=O)COc1c(Br)cc(C2NC(=O)NC(C)=C2C(C)=O)cc1OC (centres undefined),/,-1.2%,i
Cc1nnc(SCC2=C(C(=O)O)N3C(=O)[C@@H](NC(=O)Cn4cnnn4)[C@H]3SC2)s1,0.4,0.1%,i
CCC(C)(C)n1nnnc1C(c1cc2cc(C)ccc2[nH]c1=O)N1CCCC1 (centres undefined),-2.11,-8.0%,i
COc1cccc(CSc2nnc(-c3ccco3)n2C)c1,-0.14,-2.2%,i
Cc1c[n+]([O-])n(-c2ccc(C(=O)O)cc2)n1,-0.74,-1.5%,i
CC(=O)c1ccc(NC(=O)c2ccc(S(=O)(=O)N3CCCC3)cc2)cc1,0.12,-5.9%,i
CC1CCCCC1NC(=O)Cn1cnc2ccccc2c1=O (centres undefined),-0.23,-3.4%,i
Cc1ccc(S(=O)(=O)CCSc2nc(C)cc(C)c2C#N)cc1,-0.6,-1.7%,i
CCCCN(CCCC)S(=O)(=O)c1ccc(NC(=O)Cc2cccs2)cc1,/,-8.0%,i
O=C(CN1CCN(c2nc(-c3ccc(F)cc3)cs2)CC1)NCc1ccc2c(c1)OCO2,-0.38,-4.7%,i
COC(=O)C(C)Sc1nc2c(c(=O)n(C)c(=O)n2C)n1Cc1cccc(C)c1 (centres undefined),-1.13,-3.7%,i
CC1CC(c2ccccc2)n2nc(N3C(=O)c4ccccc4C3=O)nc2N1 (centres undefined),-1.34,-3.9%,i
O=c1c2ccccc2nnn1CSc1nc2ccccc2c(=O)n1Cc1ccco1,-1.36,1.9%,i
Cc1[nH]nc2c1C(c1ccc(-c3ccccc3C#N)o1)C(C#N)=C(N)O2 (centres undefined),1.01,6.9%,i
CCOCCn1c(CN2CCN(c3cccc(Cl)c3)CC2)nc2c1c(=O)n(C)c(=O)n2C,0.57,2.4%,i
CCOC(=O)N1CCC(NC(=O)c2ccc3c(c2)sc2nc(-c4cccc(OC)c4)cn23)CC1,-0.15,-24.5%,i
CCCC1C2C(=O)N(c3ccccc3OC)C(=O)C2ON1c1ccccc1 (centres undefined),1.05,0.6%,i
O=C(CSc1nc2ccccc2o1)N1CCCC1,0.22,3.4%,i
CSc1nnc(-c2ccc(NC(=O)CCc3ccccc3)cc2)n1C,0.41,-4.6%,i
COc1ccc(C2C(C(=O)N3CCN(c4ccccc4)CC3)c3ccccc3C(=O)N2C)cc1 (centres undefined),/,1.4%,i
O=C(CSc1ccccc1)NCc1cccnc1,-0.87,6.9%,i
CC(C)(C)C1CCc2onc(C(=O)Nc3cccc(O)c3)c2C1 (centres undefined),/,-2.2%,i
COc1ccccc1Oc1coc2c(CN3CCN(C)CC3)c(O)ccc2c1=O,0.6,-0.6%,i
N#Cc1c2n(c3c(-c4ccccc4)ncnc13)CCC2,-0.54,-5.3%,i
Cc1ccccc1CS(=O)(=O)Cc1ccc(C(=O)NCc2ccco2)o1,1.06,-3.9%,i
COC(=O)c1sccc1NC(=O)CCC1CCCCC1,/,-2.7%,i
CC(CN1CCOCC1)(NS(=O)(=O)c1ccccc1)c1ccccc1 (centres undefined),0.33,-1.1%,i
OC(C#CCN1CCOCC1)(c1ccccc1)C1CC1 (centres undefined),0.9,0.3%,i
O=C(O)CCCNS(=O)(=O)c1ccc(F)cc1,1.04,2.2%,i
CCC(C)Nc1nc2c(c(=O)n(C)c(=O)n2C)n1Cc1ccc(Cl)cc1 (centres undefined),-0.9,3.3%,i
Cc1cccc(NC(=O)C2CCCN(S(=O)(=O)c3cccc4nsnc34)C2)n1 (centres undefined),1.47,3.0%,i
Cn1c(=O)c2cc(S(=O)(=O)NC(C(=O)Nc3cccnc3)c3ccccc3)ccc2n(C)c1=O (centres undefined),-0.74,11.7%,i
CC(=O)N(C)c1ccc(OCC(O)COc2ccc(N(C)C(C)=O)cc2)cc1,0.44,-4.0%,i
CCN1CCN(S(=O)(=O)c2cccs2)CC1,/,0.9%,i
CCOc1ccccc1OCC(=O)Nc1nnc(C)s1,-0.81,-7.2%,i
COc1ccccc1OCC(=O)Sc1ccc(C)cc1,0.18,6.7%,i
CN(c1cccc(NC(=O)CCSc2ccccc2)c1)S(C)(=O)=O,-2.79,0.8%,i
O=C1CCc2cc(S(=O)(=O)N3CCN(c4cccc(C(F)(F)F)c4)CC3)ccc2N1,2.14,-10.2%,i
Cc1ccc(N(CC(=O)NCc2ccco2)C(=O)CCC(=O)Nc2ccccn2)cc1C,-0.69,-2.3%,i
COc1ccc(-c2cc3ccc(OCc4nn[nH]n4)cc3oc2=O)cc1OC,-0.06,4.3%,i
CC1(C)Cc2c(C#N)c(N3CCN(C(=O)c4ccco4)CC3)nc(-c3ccco3)c2CS1,-2.47,-4.0%,i
COC(=O)c1cn(NC(=O)C2CCCO2)c(=O)c2ccccc12 (centres undefined),0.77,-4.9%,i
O=C(Nc1ccccc1Cl)N1CCn2c(nc3ccccc32)C1,/,0.1%,i
CSc1ccc(C2C(C#N)=C(N)Oc3c2ccc(=O)c2c(C)oc(C)c32)cc1 (centres undefined),0.09,-23.4%,i
O=C(CCCSc1nc2ccccc2[nH]1)NCc1ccco1,-0.72,-2.0%,i

# Remaining list, next part.
SMILES,WNV NS2B-NS3 inh,Hsc70 ATP site,MT1-MMP promoter
C=CCNc1nnc(SC2CC(=O)N(c3ccc(OCCC)cc3)C2=O)s1 (centres undefined),/,1.5%,i
Cc1cc(C)cc(NC(=O)C2CCCC2)c1,1.36,6.6%,i
CCOC(=O)CCc1c(C)c(C#N)c2nc3ccccc3n2c1-n1cnc2ccccc21,/,4.3%,i
O=C(NCCCN1CCCC1=O)C1CCN(S(=O)(=O)N2CCOCC2)CC1,0.43,-0.7%,i
COC(=O)c1c(C(=O)OC)c(-c2ccc(C)cc2)n2c1CS(=O)(=O)C2,/,3.2%,i
Cc1ccc2c(c1)N(CC(=O)NCc1cccs1)C(=O)CO2,-0.39,7.3%,i
CCOC(=O)c1ccc(N=Cc2nc3ccccc3n2C)cc1,-0.5,7.8%,i
Cc1ccc(-c2noc(CSc3nnnn3C3CCCCC3)n2)cc1,-0.42,0.1%,i
Nc1cccc(C(=O)Nc2ccccc2Cl)c1,-1.18,-6.8%,i
Cc1nc2sc(C(c3cccc(F)c3)N3CCC(C)CC3)c(O)n2n1 (centres undefined),-0.13,1.2%,i
Cc1ccc2c(c1)N=C(c1ccc(Cl)cc1)CO2,/,0.7%,i
CCN(CC)CCNC(=O)Cc1c(C(=O)O)n(C)c2ccccc12,-0.98,-1.3%,i
O=C(COc1ccc(F)cc1)Nc1ccc(-n2cnnn2)cc1,-0.18,6.2%,i
CC(C)(C)c1cc(N/C=C\c2nnnn2-c2ccc(Br)cc2)no1,/,4.2%,i
Cc1c(NC(=O)C23CC4CC(CC(C)(C4)C2)C3)c(=O)n(-c2ccccc2)n1C,-0.78,2.8%,i
CCOC(=O)c1ccc(NS(=O)(=O)c2ccc3c(c2)oc(=O)n3C)cc1,0.28,-2.9%,i
Cc1noc(C)c1COc1cccc(C(=O)N2CCN(C/C=C/c3ccccc3)CC2)c1,-1,0.8%,i
COc1cc(NC(=O)CC(C)C)ccc1NC(=O)c1ccco1,0.13,2.2%,i
Cc1cc2ccccc2n2c(SCC(=O)N3CCN(C(=O)c4ccco4)CC3)nnc12,0.45,-4.2%,i
C=CCn1c(NCc2ccccc2)nc2ccccc21,-0.29,-4.0%,i
COc1ccc(C2c3c(oc4ccc(Cl)cc4c3=O)C(=O)N2Cc2ccco2)cc1OC (centres undefined),-0.9,0.8%,i
O=C(Cn1cc(C(=O)c2cccs2)c2ccccc21)NCC1CCCO1 (centres undefined),-0.37,-7.2%,i
CCNC(=O)CCSc1nc2cc(Cl)ccc2o1,/,2.3%,i
Cc1noc(C)c1CN1C(=O)NC2(CCCCCCC2)C1=O,-1.05,2.1%,i
O=C(CSc1nccn1-c1ccc(Cl)cc1)NCc1ccc2c(c1)OCO2,0.74,2.5%,i
CCN1CCN(C(=O)C2CCN(Cc3nc(-c4ccc(Cl)cc4)oc3C)CC2)CC1,-0.69,5.6%,i
O=C(Nc1cc(S(=O)(=O)N2CCOCC2)ccc1Cl)C(=O)c1c(-c2ccccc2)cc2ccccn12,/,-0.7%,i
CCOC(=O)c1ccc(S(=O)(=O)N2CCN(CC(=O)NC(=O)NC3CCCCC3)CC2)cc1,-0.76,3.8%,i
CSc1ccccc1NC(=O)C1CCCO1 (centres undefined),1.3,-1.2%,i
CCn1cc(C(=O)NCc2ccc(OC)cc2OC)c(=O)c2ccc(C)nc21,0.31,-3.7%,i
CCSc1nc2ccccc2n1C(=O)Oc1ccccc1,/,4.0%,i
COc1ccc(-n2c(COc3ccc(C)cc3)nnc2SCC(N)=O)cc1,-0.61,2.9%,i
O=C(NCc1ccco1)c1ccc2snnc2c1,/,2.3%,i
C=CCOC(=O)C1=C(C)Nc2nnnn2C1c1cccs1 (centres undefined),/,5.6%,i
CCCn1c2c(c(O)c(C(=O)NC)c1=O)CCCC2,0.29,-3.7%,i
Cc1ccc(NC(=O)c2noc3c2CCCCC3)cc1C,-0.93,-4.3%,i
CCOc1ccccc1NC(=O)Cn1c(C)cc(COC)c(C#N)c1=O,-1.35,3.6%,i
CCN1CCN(C(C)C(=O)Nc2c(C)n(C)n(-c3ccccc3)c2=O)CC1 (centres undefined),/,-2.4%,i
O=C(Cn1cnc2ccccc2c1=O)NCCC(=O)Nc1ccc2c(c1)OCCO2,-1.56,-3.0%,i
Cc1c(NC(=O)C2CC(c3c(F)cccc3Cl)=NO2)c(=O)n(-c2ccccc2)n1C (centres undefined),1.43,7.1%,i

# 13 of these compounds, reformatted:
structure	WNV NS2B-NS3 inh	Hsc70 ATP site	MT1-MMP promoter
O=C(CSc1nccn1-c1ccc(Cl)cc1)NCc1ccc2c(c1)OCO2	0.74	2.5%	i
CCN1CCN(C(=O)C2CCN(Cc3nc(-c4ccc(Cl)cc4)oc3C)CC2)CC1	-0.69	5.6%	i
O=C(Nc1cc(S(=O)(=O)N2CCOCC2)ccc1Cl)C(=O)c1c(-c2ccccc2)cc2ccccn12	/	-0.7%	i
CCOC(=O)c1ccc(S(=O)(=O)N2CCN(CC(=O)NC(=O)NC3CCCCC3)CC2)cc1	-0.76	3.8%	i
CSc1ccccc1NC(=O)C1CCCO1 (centres undefined)	1.3	-1.2%	i
CCn1cc(C(=O)NCc2ccc(OC)cc2OC)c(=O)c2ccc(C)nc21	0.31	-3.7%	i
CCSc1nc2ccccc2n1C(=O)Oc1ccccc1	/	4.0%	i
COc1ccc(-n2c(COc3ccc(C)cc3)nnc2SCC(N)=O)cc1	-0.61	2.9%	i
O=C(NCc1ccco1)c1ccc2snnc2c1	/	2.3%	i
C=CCOC(=O)C1=C(C)Nc2nnnn2C1c1cccs1 (centres undefined)	/	5.6%	i
CCCn1c2c(c(O)c(C(=O)NC)c1=O)CCCC2	0.29	-3.7%	i
Cc1ccc(NC(=O)c2noc3c2CCCCC3)cc1C	-0.93	-4.3%	i
CCOc1ccccc1NC(=O)Cn1c(C)cc(COC)c(C#N)c1=O	-1.35	3.6%	i

# Remaining list, next part
SMILES,WNV NS2B-NS3 inh,Hsc70 ATP site,MT1-MMP promoter
Cc1cc(NC(=O)c2ccc(NC(=O)C(C)C)cc2)no1,/,-4.2%,i
O=C(O)COc1ccc(-c2nnn(CC(=O)O)n2)cc1,-0.22,-3.3%,i
O=C(NCCO)c1ccc2[nH]c3c(c2c1)CCCC3,0.67,11.1%,i
COc1cccc(C2CC(c3ccccc3Cl)Nc3ncnn32)c1 (centres undefined),-0.27,-0.7%,i
O=C(CSCc1ccccc1)NC1CCSC1=O (centres undefined),-1.45,4.2%,i
CCOCCn1c(N(C)Cc2ccccc2)nc2c1c(=O)[nH]c(=O)n2C,-0.6,-7.2%,i
CCOCCn1c(SCc2c(F)cccc2Cl)nc2c1c(=O)[nH]c(=O)n2C,-0.74,0.8%,i
CCOC(=O)C1=C(C)Nc2nc(C)nn2C1c1ccc(OC)c(OC)c1 (centres undefined),0.35,1.2%,i
Cc1ccc(-c2cc(C(F)F)n3ncc(C(=O)N4CCN5CCCC5C4)c3n2)cc1 (centres undefined),0.56,8.8%,i
C=CCNC(=O)NC(=O)COC(=O)/C(C#N)=C/c1cc(C)n(CCC(C)C)c1C,/,-7.9%,i
Cc1sc(NC(=O)c2ccco2)c(C(c2cccnc2)N2CCC(C)CC2)c1C (centres undefined),/,3.6%,i
COC(=O)c1cc(=O)nc2sc(-c3ccccc3)nn12,-1.11,3.0%,i
COc1ccc(C(=O)N2CCN(S(=O)(=O)c3ccc(Cl)cc3)CC2)cc1OC,/,4.2%,i
CC1(C2(O)CC(c3ccccc3)ON2)CCCCC1 (centres undefined),0.42,-2.6%,i
